From PubChem BioAssay
D2 potentiator: Beta-Arrestin HTS for Positive Allosteric Modulators of the Human D2 Dopamine Receptor: Potentiators | potentiation, % (no concentration beside the values) | D(2) dopamine receptor (Homo sapiens), P14416 | 0.23% of 360,000 active | DiscoveRx D2 beta-arrestin cells, luminescence, 90 min; 100% = 57 uM dopamine signal | AID 624464, 2012; active = potentiation of 50% or more; inconclusive = 30% to 50%; inactive = 30% or less;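 also: compound concentration not given in the record; tested on top of an EC20 dose of dopamine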
Target sequence (P14416 whole entry, looked up): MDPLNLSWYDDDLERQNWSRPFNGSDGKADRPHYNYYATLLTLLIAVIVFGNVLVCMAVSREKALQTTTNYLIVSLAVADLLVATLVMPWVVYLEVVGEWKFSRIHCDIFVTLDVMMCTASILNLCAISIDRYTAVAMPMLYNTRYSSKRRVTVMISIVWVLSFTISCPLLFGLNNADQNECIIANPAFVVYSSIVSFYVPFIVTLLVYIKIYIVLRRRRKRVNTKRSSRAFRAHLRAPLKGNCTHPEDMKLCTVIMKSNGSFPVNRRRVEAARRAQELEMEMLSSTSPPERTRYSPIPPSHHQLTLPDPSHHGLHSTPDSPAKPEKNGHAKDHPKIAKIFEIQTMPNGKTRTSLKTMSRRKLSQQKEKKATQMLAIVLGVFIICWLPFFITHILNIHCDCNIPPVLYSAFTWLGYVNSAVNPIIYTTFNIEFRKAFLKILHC
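PathHunter D2 cells, attached overnight at 37 deg C, received compound in DMSO plus dopamine at EC20 (50 nM final) for 90 min at 37 deg C. Beta-arrestin recruitment was read as luminescence after 1 h with detection reagent at ambient temperature.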
Six1-Eya2 blk: qHTS Assay for Inhibitors of the Six1/Eya2 Interaction; AlphaScreen GST-Six1/His-Eya2 binding, biochemical; stronger effect = lower value; control for the full effect not named in the record; activity change, % (concentration not given with the values); 0.56% of 360,000 active; in the data active = activity change below about -65%; inconclusive = about -30% to -65%; inactive = above about -30%; also: % is scaled to controls: 0 for no effect and ±100 for the full control effect
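Six1/Eya2 binding was read as AlphaScreen signal after compounds were pinned into GST-Six1 plus His-tagged Eya2 (5X stock 250/500 nM) in pH 8.0 Tris/NaCl/TCEP buffer, beads added, then incubated 1 h, 37 C, dark.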
PINK1 expr mod: A Quantitative High throughput Screen to Identify Chemical Modulators of PINK1 Expression | PINK1 immunofluorescence, high-content cytometry, 24 h | Potency, µM (doses to about 76.6 µM), inactives show at the highest dose activation (PINK1 increase), usual class: activators | 0.2% of 410,000 active | AID 624263, 2012; active = well fitted activation curve with a large enough effect; inconclusive = small, poorly fitted or top-dose-only effect; inactive = flat fitted curve, though single readings scatter; cell line not stated here;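 also: potency is read from the fitted curve at half-maximal effect; % of control where 0% means no effect; nearly all actives have a fitted effect of over 65% in size; a mitochondrial uncoupler was the plate control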
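A stable cell line was treated with compounds at 5 concentrations for 24 hours, with CCCP as control. PINK1 levels and mitochondrial localization were measured by immunofluorescence with mitochondrial, cell and nuclear markers after fixation, read by laser-scanning cytometry.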
CtBP-E1A blk: qHTS Assay for Inhibitors of the CtBP/E1A Interaction | CtBP / adenovirus E1A interaction (AlphaScreen) | AlphaScreen GST-E1A/His-CtBP binding, 1536-well; stronger effect = lower value; control for the full effect not named in the record | activity change, % (test concentration not listed) | 0.49% of 340,000 active | AID 651724, 2012; in the data active means activity change below about -65%; inconclusive means about -30% to -65%; inactive means above about -30%; also: % is scaled to controls: 0 for no effect and ±100 for the full control effect; compound concentration not given in the record
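AlphaScreen with 125 nM GST-E1A and 125 nM His-CtBP (5X stocks) in Tris pH 8.0, 300 mM NaCl, BSA, Tween 20, TCEP. Compounds preincubated 2 h at 37 deg C, then glutathione donor/nickel acceptor beads added for 1 h at 37 deg C in dark.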
TRPML1 agonist: qHTS for Agonists of the Human Mucolipin Transient Receptor Potential 1 (TRPML1). Mucolipin-1 (Homo sapiens), Q9GZU1. TRPML1-expressing cells, Ca2+ dye fluorescence, FDSS; host cell line not named in the record; reference of the full effect not given here. activation, % (no concentration beside the values). 0.12% of 410,000 active; in the data active = activation above about 50%; inconclusive = about 30% to 50%; inactive = below about 30%; also: 0% is about no effect; the text of the record puts the active cut at 80%
Target sequence (Q9GZU1 whole entry, looked up): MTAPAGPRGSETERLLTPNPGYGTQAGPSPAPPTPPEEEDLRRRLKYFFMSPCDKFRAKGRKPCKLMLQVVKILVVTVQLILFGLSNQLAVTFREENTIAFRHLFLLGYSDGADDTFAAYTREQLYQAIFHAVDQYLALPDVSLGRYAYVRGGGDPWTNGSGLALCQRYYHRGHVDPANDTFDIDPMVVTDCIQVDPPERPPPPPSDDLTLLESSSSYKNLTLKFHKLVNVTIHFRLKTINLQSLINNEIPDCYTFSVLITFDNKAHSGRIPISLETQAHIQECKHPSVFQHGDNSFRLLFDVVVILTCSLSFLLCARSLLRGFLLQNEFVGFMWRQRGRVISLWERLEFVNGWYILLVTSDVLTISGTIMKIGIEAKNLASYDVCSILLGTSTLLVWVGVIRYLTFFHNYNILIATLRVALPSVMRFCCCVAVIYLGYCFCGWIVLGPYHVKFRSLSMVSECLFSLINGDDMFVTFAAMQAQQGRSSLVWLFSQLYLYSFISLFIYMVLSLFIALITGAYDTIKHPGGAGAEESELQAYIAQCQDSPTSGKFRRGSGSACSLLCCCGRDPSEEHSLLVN
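Agonist activity was taken from a 110 s kinetic Ca2+ dye read on the FDSS after pinning compounds onto TRPML1-DL cells. The cells were seeded at 1,500/well with Tet inducer, incubated about 16 h, then dye-loaded at room temperature.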
D2 ag: Beta-Arrestin HTS for Positive Allosteric Modulators of the Human D2 Dopamine Receptor: Agonists; DiscoveRx PathHunter D2 beta-arrestin, luminescence, 90 min; 100% = 57 uM dopamine signal; activation, % (test concentration not listed); 0.084% of 360,000 active; AID 624465, 2012; in the data active = activation above about 40%; inconclusive = about 15% to 40%; inactive = below about 15%; also: compound concentration not given in the record; the text of the record calls up to 30% inactive
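Agonist mode: compounds alone added to overnight-plated D2 PathHunter cells for 90 min at 37 C, with 57 uM final dopamine (EC100) defining full response. Beta-arrestin recruitment detected by chemiluminescent reagent, read after 1 h at ambient temperature.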
An asterisk follows results filed as active; ? = inconclusive; nt = no result given; [ ] = another dose, or the depositor's remark.

Results follow in this order: TRPML1 agonist, Six1-Eya2 blk, PINK1 expr mod, D2 potentiator, CtBP-E1A blk, D2 ag
C[C@@H](NC(=O)c1nc[nH]c1C(=O)NC1CCN(C(=O)OC(C)(C)C)CC1)c1ccccc1
→ 0.2, -4, -0.5%, -3, -2, -1.2
COc1cc(C(=O)NCC(=O)N/N=C(C)\C=C\c2ccccc2)cc(OC)c1OC
→ 0.2, -8, 2.5%, -1, 3, 0.6
COc1ccccc1NC(=O)C(C)N(C)Cc1ccc(Cl)s1 (stereo not drawn)
→ 2.6, 0, 3.7%, -9, 27, -1.7
O=C(NCc1ccccc1F)C(=O)NCC1CCCN1S(=O)(=O)c1cccs1 (stereo not drawn)
→ -0.3, 0, -0.7%, 1, -6, -0.8
CCCS(=O)(=O)N1CCCC(C(=O)NCCc2ccc(Cl)cc2)C1 (stereo not drawn)
→ -0.4, 9, -2.4%, -24, 2, -2.0
COC(=O)C(C)NC(=S)N1CCN(c2c(F)cc3c(=O)c(C(=O)O)cn(C4CC4)c3c2OC)CC1C (stereo not drawn)
→ 0.8, -2, 1.8%, -5, 3, -2.0
OC[C@@H]1CN(Cc2cccnc2)C[C@H](n2cnc3c(N4CCOCC4)ncnc32)O1
→ -0.4, -2, 1.4%, -9, 1, -4.6
Cc1ccc(C(=O)NCCc2ccccc2)cc1
→ nt, 7, -0.5%, -24, nt, -2.8
COC(=O)c1cc(S(=O)(=O)Nc2cccc(S(N)(=O)=O)c2)oc1C
→ 1.3, 0, -2.1%, 1, 2, -3.7
CSc1nccc(Oc2ccc(C#N)cc2)n1
→ -0.4, -6, -0.3%, -8, -4, -3.5
CC(=O)NC(C)C(=O)OCC(=O)c1ccc(Cl)s1 (stereo not drawn)
→ -0.8, 0, -1.5%, -11, 14, -5.5
N#CCCn1cc(C(=O)Nc2ccc([N+](=O)[O-])cc2)c(-c2cc3ccccc3o2)n1
→ 0.5, -1, -0.8%, -8, nt, -1.2
COCC(C)n1c(SCC(=O)NC(=O)Cc2ccccc2)nc2ccccc2c1=O (stereo not drawn)
→ -0.2, 2, 2.5%, -1, 0, -0.8
COc1cccc(CN(C)C(=O)CCN(c2ccccc2)S(=O)(=O)c2ccc(C)cc2)c1OC
→ 0.8, 1, -3.7%, -69, -7, -20
Cc1oc2c(c1C(=O)O)C(=O)c1ccccc1C2=O
→ -0.7, 1, -0.2%, 19, -1, ?
Cc1ccc(NC(=O)COC(=O)Cn2cnc3c2c(=O)n(C)c(=O)n3C)cc1
→ -0.4, 5, 1.4%, -3, 7, -0.7
O=C(CSc1nnc(SCc2ccc(Cl)cc2)s1)N/N=C/c1c[nH]c2ccccc12
→ 0.0, -11, 2.8%, -9, 2, -3.2
Cc1ccc(N(C)C(=O)c2ccc3c(Cl)c4c(nc3c2)CCC4)cc1C
→ 2.9, -1, -1.2%, 1, -28, -6.9
COc1ccc(-c2n[nH]c(C)c2-c2ccc(Cl)cc2)c(O)c1OC
→ 0.3, -10, -2.1%, 8, -1, -5.3
O=C(NCC(=O)N1CCCC(C(F)(F)F)C1)c1cccs1 (stereo not drawn)
→ -0.6, 12, 4.1%, 3, 8, 1.9
COc1ccc(CCC(=O)Nc2cc3c4c(c2)CC(=O)N4CCC3)cc1
→ -0.4, 0, 1.3%, -20, 4, -5.8
C=C(C)CN(CC)C(=O)Cn1cnc2c(oc3ccccc32)c1=O
→ -0.3, 4, 0.8%, -19, 14, -4.7
COCc1cc(C)nc2sc(C(=O)OC)c(N)c12
→ 1.5, 2, 4.0%, -6, 0, -1.3
CCC(C(=O)Nc1ccc2[nH]ncc2c1)c1ccccc1 (stereo not drawn)
→ -0.5, -2, 0.9%, -1, 7, 3.9
COc1ccc(CCNC(=O)CCCn2c(=O)[nH]c3cc(OC)c(OC)cc3c2=O)cc1OC
→ -0.4, -3, -0.2%, -8, -1, -1.8
O=C(C1=C(O)C(=O)N(CCN2CCOCC2)C1c1cccs1)c1cc2ccccc2o1 (stereo not drawn)
→ 0.7, 5, -1.8%, -1, 4, -5.1
CCOC(=O)c1ccc(NC(=O)CN2CCc3ccccc3C2)cc1
→ -0.6, 1, -4.1%, -9, -17, -3.2
O=C(NNC(=S)Nc1ccc(Br)cc1Cl)c1ccco1
→ -0.1, 0, 9.5%, -17, 5, -3.4
CCOC(=O)c1cccc(NC(=O)CCCn2c(=O)c3cccn3c3cccnc32)c1
→ -0.1, -1, 4.5%, -8, -8, -0.7
COc1ccc(C(=O)NC(CCSC)C(=O)N2CCCCCC2)cc1 (stereo not drawn)
→ 2.9, 8, -0.7%, -8, 1, 2.9
CC(=O)Oc1ccc2c(C)cc(=O)[nH]c2c1
→ 0.8, 11, -0.8%, -8, -7, -0.8
O=C(NCCCCNC(=O)c1ccccc1Cl)c1ccccc1Cl
→ -0.6, 18, 0.9%, -3, 1, -2.1
COc1ccc(NC(=O)c2cc(-c3cccnc3)nc3c(C)c(C)ccc23)c(OC)c1
→ -0.3, -5, 11%[38.3 µM], -8, 2, -2.6
c1ccc(Nc2cccc(Nc3ccccc3)c2)cc1
→ 4.1, -29, 12%, 0, -6, -2.3
O=C(Cn1c(C(=O)N2CCN(C3CCCC3)CC2)cc2sccc21)c1ccccc1
→ -0.4, -14, -16%[38.3 µM], -20, -5, 4.7
COC(=O)CNC(=O)C1Cc2ccccc2CN1S(=O)(=O)c1cccs1 (stereo not drawn)
→ 0.8, 0, 0.1%, -1, 9, -7.8
CC(C)N(C(=O)CSc1nnc(C2CC2)n1C1CC1)c1ccccc1
→ -0.3, 5, -0.3%, 6, -1, -0.8
CCOc1ccccc1Nc1nc(-c2sc(NC(=O)c3cccc(Cl)c3)nc2C)cs1
→ -0.8, 2, 7.6%, -9, 2, -4.4
Cc1cc(C(=O)N2CCCC(N3CCN(c4ccccc4C)CC3)C2)nc(C)n1 (stereo not drawn)
→ 0.0, 4, -1.8%, -19, 0, -0.7
C=CCNC(=S)NNc1nc2sc3c(c2c(=O)[nH]1)CC(C)(C)OC3
→ -0.1, 8, 2.7%, 0, 0, 12
CN(C)CCNc1ncnc2c1ncn2[C@H]1CN(Cc2cccnc2)C[C@@H](CO)O1
→ -0.1, 26, 3.4%, 2, 0, -5.4
Cc1csc(SCC(=O)NCCc2ccc(Cl)cc2)n1
→ -0.4, 2, 1.0%, -1, -11, 0.4
O=C(NCCc1nc(-c2ccccc2)no1)c1ccco1
→ -0.3, 5, 0.2%, -9, nt, -3.6
Cc1ccc(NC(=O)CCOc2ccccc2)cc1S(=O)(=O)Nc1ccccc1Cl
→ 2.0, ?, 0.9%, 4, ?, -4.5
COc1ccc(NC(=O)CN(C)C(=O)CCCc2nc3ccccc3s2)cc1
→ 0.4, 0, 1.1%, 2, 4, 2.1
Cc1csc(CN(C)C(=O)CC2C(=O)NCCN2Cc2ccc(Cl)c(F)c2)n1 (stereo not drawn)
→ 0.1, 3, 0.3%, -10, 3, -0.1
COc1ccc(NS(=O)(=O)c2cc(C(=O)N3CCCCCC3)ccc2C)cc1
→ 0.0, 1, -1.5%, -4, 10, -2.7
O=C(CSc1nnc(-c2ccccc2)n1-c1ccc(Cl)cc1)N/N=C/c1ccco1
→ -0.8, 0, 1.0%, -25, 4, -4.3
CCCCn1c(N)c(N(CCOC)C(=O)Cn2c(=O)cnc3ccccc32)c(=O)[nH]c1=O
→ -0.5, 6, -1.7%, -6, 1, 7.8
O=C(NCCC1=CCCCC1)C(=O)NCC(c1ccco1)N1CCN(c2ccccc2F)CC1 (stereo not drawn)
→ 1.8, 5, ?, -2, 3, -0.8
Cc1nn(-c2ccccc2)c(C)c1C(=O)OCC(=O)Nc1ccccc1
→ 1.3, -1, 3.2%, -17, 4, -6.9
C=CCn1c(COc2cccc3cccnc23)nnc1SCC(=O)O
→ 0.9, 1, 1.5%, -1, -2, -1.1
Cc1cccc(N(CC(=O)NCc2ccco2)C(=O)CCC(=O)Nc2nccs2)c1
→ 1.4, -1, 1.9%, -11, -1, -0.6
Cc1ccc2ccccc2c1NC(=O)Cn1nnc(-c2cccnc2)n1
→ 0.2, -5, 0.0%, -4, -14, -3.1
COc1cccc(C(=O)OCC(=O)NCCc2ccccc2)c1OC
→ 1.5, 3, -0.5%, -1, 14, -6.1
CCOC(=O)Cn1ncn(-c2ccc(OC(F)(F)F)cc2)c1=O
→ -0.6, 15, 2.0%, 4, 0, -2.5
CN(C)CC(C)(C)CNC(=O)c1cc(Br)cc(Br)c1O
→ 3.2, -1, 0.8%, -28, nt, -8.4
Cc1nc2ccccn2c1C(=O)NCc1cccnc1
→ -0.2, 2, 2.9%[38.3 µM], 2, 8, -3.4
COc1ccc(C(=O)O)cc1S(=O)(=O)NC(C)C12CC3CC(CC(C3)C1)C2 (stereo not drawn)
→ 0.5, -7, 0.4%, 14, 6, -8.7
Cc1cc(=O)oc2cc(OCC(=O)Nc3cccnc3)ccc12
→ 0.5, 6, 0.6%, -4, -4, -2.5

Already shown: an excerpt of the list.
Results follow in this order: TRPML1 agonist, Six1-Eya2 blk, PINK1 expr mod, D2 potentiator, CtBP-E1A blk, D2 ag
Cc1csc(CN(C)C(=O)CC2C(=O)NCCN2Cc2ccc(Cl)c(F)c2)n1 (stereo not drawn)
→ 0.1, 3, 0.3%, -10, 3, -0.1
COc1ccc(NS(=O)(=O)c2cc(C(=O)N3CCCCCC3)ccc2C)cc1
→ 0.0, 1, -1.5%, -4, 10, -2.7

New compounds follow:
Results follow in this order: TRPML1 agonist, Six1-Eya2 blk, PINK1 expr mod, D2 potentiator, CtBP-E1A blk, D2 ag
CCCS(=O)(=O)N1CCN(CC2CC=CCC2)CC1 (stereo not drawn)
→ 0.1, 7, -2.1%[38.3 µM], -3, 2, 1.5
CCOCC(=O)Nc1cc(OC)c(Cl)cc1OC
→ -1.3, -1, -0.1%, -11, 7, -2.4
Cc1c(C(=O)OCC(=O)Nc2c(C)n(C)n(-c3ccccc3)c2=O)oc2ccccc12
→ 0.4, 9, -0.8%, -6, 8, -2.6
CC(C)Sc1ncnc2c1cnn2-c1ccccc1
→ 1.3, 17, 11%, -5, 1, 1.8
NS(=O)(=O)c1ccc2nc(NC(=O)c3ccc4c(c3)OCCO4)sc2c1
→ -0.3, 0, 1.6%, -10, 3, -1.9

3 entries from above in a different format.
Cc1c(C(=O)OCC(=O)Nc2c(C)n(C)n(-c3ccccc3)c2=O)oc2ccccc12
  TRPML1 agonist: 0.4
  Six1-Eya2 blk: 9
  PINK1 expr mod: -0.8%
  D2 potentiator: -6
  CtBP-E1A blk: 8
  D2 ag: -2.6
NS(=O)(=O)c1ccc2nc(NC(=O)c3ccc4c(c3)OCCO4)sc2c1
  TRPML1 agonist: -0.3
  Six1-Eya2 blk: 0
  PINK1 expr mod: 1.6%
  D2 potentiator: -10
  CtBP-E1A blk: 3
  D2 ag: -1.9
CCCS(=O)(=O)N1CCN(CC2CC=CCC2)CC1 (stereo not drawn)
  TRPML1 agonist: 0.1
  Six1-Eya2 blk: 7
  PINK1 expr mod: -2.1%[38.3 µM]
  D2 potentiator: -3
  CtBP-E1A blk: 2
  D2 ag: 1.5
